# Compound activity as filed in PubChem BioAssay.
# Calb biofilm kill = mixtures killing C. albicans biofilm; C. albicans biofilm persisters + clotrimazole, fluorescence viability; primary screen in compound mixtures of four per well; inhibition, % at 7.6 µM; actives 0.02% (n = 120,000);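 active = inhibition above 30.3% in the primary screen of four-compound pools, then above 30% when the compound was retested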;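 note: compounds exposed to preformed 24 h biofilms for 48 h; the number belongs to the whole pool; some results filed as inactive read as strong as hits; inactives centre near 12; 0% = biofilm with clotrimazole alone and 100% = kill control; retested singly at about 60 µM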
#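 Probe or stimulus – Clotrimazole 50 µg/mL co-treatment · System – C. albicans biofilms · Schedule – 24 h biofilm formation, then 48 h compound exposure, 37 °C · Evaluation – percent inhibition of biofilm viability · Technique – 2-h Alamar Blue fluorescence, 535/590 nm excitation/emission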
# Starred values were filed as active, the others as inactive.
SMILES,Calb biofilm kill
O=C(N/N=C/C=C/c1ccc(Br)cc1)C(O)c1ccccc1 (centres undefined),12.4
Cc1ccccc1N1CCN(C(=S)c2ccc(-c3cccc([N+](=O)[O-])c3)o2)CC1,6.8
COc1ccc2nc(NC(=O)CCc3ccc(OC)c(OC)c3)sc2c1,2.2
O=C(NCc1ccc(Cl)cc1)c1cccc(NC(=O)c2ccccc2)c1,10.2
C=CCNC(=S)Nc1cc(S(=O)(=O)N2CCOCC2)ccc1-n1cncn1,9.5
CCOc1ccc(-n2c(C)cc(/C=N/NC(=O)C(N)=O)c2C)cc1,16.1
CCNc1ccc(C(=O)N/N=C/c2c(C)nn(-c3ccccc3)c2N2CCCC2)cc1[N+](=O)[O-],20.2
Cc1nn(C)c(Cl)c1CN1CCN(C2CCCC2)C(CCO)C1 (centres undefined),21.9
COc1ccc(NC(=O)CC2C(=O)N(C)C(=S)N2Cc2cccs2)cc1 (centres undefined),9.9
Cc1cc(C)nc(N(C#N)C(C)C(=O)N(C)C)n1 (centres undefined),-9.3
COc1ccc(C)cc1NC(=O)CNC(C)C(=O)Nc1cc(Cl)ccc1Cl (centres undefined),-10.6
CCOc1nc(NCc2ccco2)nc(Nc2ccccc2F)n1,11.5
O=C(Nc1cccc(O)c1)c1ccc(C(=O)c2ccccc2)o1,12.8
COc1ccc2nc3ccccc3nc2c1NC(=O)c1ccc(Cl)cc1,19.2
Cc1ccc(NC(=O)Nc2cc(-c3ccccc3)nn2C)cc1Cl,9.0
O=C(Nc1cnccn1)Nc1cccc(Cl)c1Cl,2.0
C1CC(CN2CCOCC2)CN(Cc2nc(CC3CC3)no2)C1 (centres undefined),8.6
NC(=O)NN=C1C2CCCC1C(c1ccccc1)NC2c1ccccc1 (centres undefined),12.4
O=C(/C=C/c1ccccc1)Oc1coc(CSc2ncccn2)cc1=O,-12.1
O=C(Nc1ccc(S(=O)(=O)Nc2nccs2)cc1)c1cccc(N2C(=O)c3ccccc3C2=O)c1,5.5
CCCCC/C=C\C[C@H](O)/C=C/c1cccc(C[C@H](O)CCCCO)n1,15.4
O=C(c1ccco1)N1CCN(c2cc(N3CCOCC3)c(F)cc2[N+](=O)[O-])CC1,10.7
COc1ccccc1/C=C/C=N/NC(=O)c1cccs1,29.8
CC(C)(C)c1nnc2cccc(Cl)n12,4.0
N#Cc1c2nc3ccccc3nc2n2cc(NC(=O)c3ccc(F)cc3)ccc12,10.7
c1ccc(-c2ccccc2OCCOCCN2CCNCC2)cc1,3.3
CS(=O)(=O)Oc1ccccc1/C=C1/N=C(c2ccc(F)cc2)OC1=O,8.6
O=[N+]([O-])c1c(Nc2ccccc2O)cc(N2CCOCC2)c2nonc12,19.4
O=S(=O)(Nc1nc2ccccc2nc1-[n+]1ccccc1)c1ccc(Cl)cc1,14.7
Cc1noc(N)c1C1(O)C(=O)Nc2c(Cl)cc(Cl)cc21 (centres undefined),1.1
S=C(NCc1ccco1)Nc1ccc(Cl)cc1,13.3
Cc1cc(C)c2c(CN3CCOCC3)cc(=O)oc2c1,16.3
COc1ccc2cc(C3CC(c4ccco4)=NN3S(=O)(=O)c3ccccc3)c(Cl)nc2c1 (centres undefined),15.2
Nc1nc(SCC(=O)c2cccc([N+](=O)[O-])c2)n[nH]1,3.5
CS(=O)(=O)N(CC(=O)Nc1ccccc1C(=O)NCc1ccco1)c1ccccc1F,17.4
Cn1c(=O)c2c(nc(CN3CCN(c4ccc(F)cc4)CC3)n2CCN2CCOCC2)n(C)c1=O,21.6
Cc1ccc([N+](=O)[O-])cc1NC(=O)CCc1ccccc1,2.3
CCc1nc(SCc2ccc(C(=O)OC)o2)n[nH]1,10.1
Nc1nc(-c2ccccn2)nc(N)c1Cc1ccccc1F,16.4
CCCCN(C(=O)COc1ccc(C)cc1OC)c1c(N)n(CCC)c(=O)[nH]c1=O,5.3
NS(=O)(=O)c1cccc(NC(=O)COC(=O)CN2C(=O)C3CC=CCC3C2=O)c1 (centres undefined),11.5
COc1ccc(-n2c(SCC(N)=O)nc3sc4c(c3c2=O)CCC4)cc1,20.5
COc1ccc(CC(=O)NNC(=O)CSc2nc(C)c(C)c(=O)[nH]2)cc1,6.3
COCCn1cc(C(=O)c2cc(Br)ccc2O)cc(C#N)c1=O,16.8
CCOC(=O)C1(CC2CCCCO2)CCN(S(=O)(=O)c2cccc(F)c2)CC1 (centres undefined),7.4
O=C(Nc1nc(-c2ccc(F)cc2)cs1)c1cnccn1,14.1
Cc1ccc2nc(-c3ccccc3O)c(Nc3ccc4c(c3)OCCO4)n2c1,14.4
Cc1ccc(O)c(C(=O)c2cnc3onc(-c4ccc(F)cc4)c3c2)c1,19.8
COc1ccc(NS(=O)(=O)c2cc(NC(=O)c3cnccn3)ccc2OC)cc1Br,12.2
O=C(CCN1CCC(c2cccs2)=N1)c1cccs1,6.8
CC1CN(C(=O)c2ccc(COc3ccc4ccccc4c3)o2)CC(C)O1 (centres undefined),16.2
O=C(c1ccc(S(=O)(=O)Cc2cc(F)ccc2F)c([N+](=O)[O-])c1)N1CCCC1,9.2
CCCNC(=O)c1cc(-c2ccc(OC)cc2)n(CCCOC)c1C,12.0
COc1cc2c(cc1OC)-c1nnc(-c3ccco3)n1C1(CCCC1)C2,13.3
Cc1ccccc1Cn1c(=O)n(CC2CCC(C(=O)NCCc3ccccc3)CC2)c(=O)c2ccccc21 (centres undefined),13.2
COc1cccc(C(=O)NCCCN2CCN(CCCNC(=O)c3cccc(OC)c3)CC2)c1,9.6
Nc1nnc(SCC(=O)Nc2sc3c(c2C(=O)c2ccccc2)CCCC3)s1,11.9
CCOC(=O)c1cnc(-n2nc(C)cc2C)nc1Oc1ccccc1F,22.5
Cc1ncoc1C(=O)N1CCCC(CCC(=O)NCc2ccc(F)c(F)c2)C1 (centres undefined),2.2
O=S(=O)(Nc1ccccc1)c1ccc2c(c1)CCO2,24.8

# Some of the entries so far, field by field:
O=C(CCN1CCC(c2cccs2)=N1)c1cccs1
  Calb biofilm kill: 6.8

COCCn1cc(C(=O)c2cc(Br)ccc2O)cc(C#N)c1=O
  Calb biofilm kill: 16.8

Cc1ccc(O)c(C(=O)c2cnc3onc(-c4ccc(F)cc4)c3c2)c1
  Calb biofilm kill: 19.8

COc1ccc(CC(=O)NNC(=O)CSc2nc(C)c(C)c(=O)[nH]2)cc1
  Calb biofilm kill: 6.3

# (further entries)
SMILES,Calb biofilm kill
COc1ccc(CN2CCC(N3CCC(C(=O)N4CCOCC4)CC3)CC2)c(F)c1,-3.7
COc1ccc(NC(=O)CSc2ncnc3[nH]ncc23)cc1,20.0
CCCCNC(=O)c1ccccc1NC(=O)c1ccc2c(c1)OCO2,-5.9
CCOC(=O)N1CCN(C(=O)/C=C/c2ccc3c(c2)OCO3)CC1,17.7
CC(C)(C)OC(=O)N/N=C/c1cn(-c2ccccc2)nc1-c1cccnc1,9.2
c1ccc(Cn2nnc(CNc3ccccc3)c2-c2c(CNc3ccccc3)nnn2Cc2ccccc2)cc1,23.8
CN(C)c1ccc(/C=N/NC(=O)c2nnn(-c3nonc3N)c2COc2ccc(F)cc2)cc1,7.5
CCCCc1ccc(NC(=S)N2CCCC(C)C2)cc1 (centres undefined),2.8
C/C(=N/NC(=O)c1ccco1)c1cccnc1,7.4
CSc1nc2ccc(NC(=O)c3nn(C(C)C)c(=O)c4ccccc34)cc2s1,18.6
CCCCN(C)C(=O)CCC(=O)NNc1nc2ccccc2c2nc(C)nn12,14.9
O=C(CNC(=O)C1CCCCC1)Nc1ccccc1Cl,2.5
Cc1ccn2cc(-c3cccc(NS(C)(=O)=O)c3)nc2c1,5.5
COCc1c(Br)c(C)[nH]c(=O)c1C#N,10.9
N/C(=N\OC(=O)c1ccc(Br)o1)c1cccnc1,17.8
COc1ccc2oc3cc(C)[n+]([O-])c(-c4ccc(Br)cc4)c3c2c1,0.7
Cc1cc2cc(C)c(NCCNC(=O)c3cccc(F)c3)nc2cc1C,8.0
O=C(CNC(=S)N(Cc1ccccc1)Cc1cccnc1)NC1CC1,15.6
Cc1cc(C)n(-c2nc(NCCCN(C)C)c3c4c(sc3n2)CCCC4)n1,-0.5
CCOC(=O)N1CCN(CC(O)COCc2cc(OC)c(OC)c(OC)c2)CC1 (centres undefined),-9.3

# 3 records picked at random from the list so far, as already listed:
SMILES,Calb biofilm kill
CCCNC(=O)c1cc(-c2ccc(OC)cc2)n(CCCOC)c1C,12.0
Cc1ccccc1N1CCN(C(=S)c2ccc(-c3cccc([N+](=O)[O-])c3)o2)CC1,6.8
CC(C)(C)OC(=O)N/N=C/c1cn(-c2ccccc2)nc1-c1cccnc1,9.2

# Additional compounds
SMILES,Calb biofilm kill
NC(=O)c1cc(C(=O)c2cccc(Cl)c2Cl)c[nH]1,12.7
CCCC(C)NC(=S)NC(=O)c1cc(S(=O)(=O)N2CCOCC2)ccc1C (centres undefined),1.1
N#Cc1ccc(NC(=S)NC(=O)CCc2ccc(S(=O)(=O)N3CCOCC3)cc2)cc1,7.7
Cc1ccccc1NC(=O)C(Cc1ccccc1)n1cccc1 (centres undefined),19.1
Cc1occc1C(=O)NNC(=O)c1ccc(Br)o1,12.6
CCOC(=O)CN1C(c2ccc(O)cc2)Nc2ccc(Br)cc2C1c1ccccc1 (centres undefined),-7.7
CN(C)CCN(C(=O)c1ccc(N2C(=O)CCC2=O)cc1)c1nc2cc3c(cc2s1)OCCO3,8.8
O=[N+]([O-])c1ccc(Nc2nc(NCCO)nc(N3CCCC3)n2)cc1,-3.0
CCCCCCC(=O)N1C/C=C\C(c2ccc(OC)cc2)N(Cc2ccc(F)cc2)C(=O)[C@H]1Cc1ccccc1 (some centres undefined),14.1
O=C(CNC(=O)c1ccco1)OCC(=O)c1ccc(Cl)cc1,27.2
COc1cc2c3nnc(-c4ccccc4)c-3cn(Cc3ccccc3F)c2cc1OC,12.9
CN1CCC(N(C)C(=O)/C(C#N)=C/c2ccc(OC(F)F)cc2)CC1,6.8
O=C1NC(=Nc2ccccc2)S/C1=C\C=C\c1ccco1,9.3
O=S1(=O)CC/C(=N\Nc2ccc(F)cc2)c2ccsc21,16.3
O=C1CC(N2CCC(c3nc4ccccc4[nH]3)CC2)C(=O)N1c1ccccc1F (centres undefined),14.0
COc1ccc(CN(Cc2ccc(OC)cc2)C(=O)c2cccs2)cc1,4.0
CCOc1cc(NC(=S)NC)c(OCC)cc1NC(=O)c1ccc(OC)cc1,20.9
Cc1ccc(C2CC(c3cccs3)=NN2C(=O)CSc2nc3ccccc3o2)cc1 (centres undefined),17.3
CCN1C(=O)/C(=c2\sc3nc(=O)c(Cc4ccccc4)nn3c2=O)c2ccccc21,20.0
COc1cccc(C(C)NC(=S)NCc2ccc(Cl)cc2)c1 (centres undefined),14.4
CC(C(=O)Nc1ncccn1)(c1ccccc1)c1ccccc1,14.6
C1CN(c2nc3nonc3nc2N2C[C@H]3CC[C@H]2C3)CCS1,9.0
CC1(C)CC(=O)C(N=Nc2ccc(-c3ccccc3)cc2)=C(O)C1,12.0
C/C(=N\Nc1nc(C)cc(C)n1)c1ccc(C)o1,1.0
Cc1ccc(/C=C/C(=O)Nc2nn[nH]n2)o1,-6.4
COCCNC(=O)/C(C#N)=C/C=C/c1ccccc1[N+](=O)[O-],14.9
Cc1cc(=O)[nH]c2c3ccccc3nn12,13.3
CCOC(=O)c1ccc[n+](CC(=O)Nc2ccccc2OC(F)F)c1,10.1
O=C(Nc1cc(=O)[nH]c2nc(-c3ccc(Cl)cc3)nn12)c1ccccc1,-5.0
CCC(C)CCCCNC1=NCCS1 (centres undefined),17.1
CCOC(=O)c1ccc(N/C=C/C(=O)C(C)(C)C)cc1,10.2
CCNC(=S)NNC(=O)CC(C)C,8.8
COc1cc(CCCN2C(=S)NC[C@@H]2CCCCN)cc(OC)c1OC,19.9
O=C(O)CCCCn1c(SCc2cc(=O)n3cc(Cl)ccc3n2)nc2ccsc2c1=O,7.9
O=C(CN(C1CCCCC1)S(=O)(=O)c1ccc(Br)cc1)NCc1cccnc1,7.5
CC(C)CC1NC(=O)N(Cc2cc(=O)n3ccsc3n2)C1=O (centres undefined),4.9
CC(C)NC(=O)C1CCN(C2CCN(C(=O)Cc3ccc4c(c3)OCO4)CC2)CC1,15.8
CN(C(=O)COC(=O)c1ccc(Cl)cc1N)C1CCCCC1,7.5
c1ccc(CNc2ncnc3c2cnn3Cc2ccccc2)cc1,8.5
COC(=O)c1ccc(-c2ccc(/C=N/NC(=O)Cc3nnc(N)s3)o2)cc1,19.1

# Continued; the last 2 above are carried over.
SMILES,Calb biofilm kill
c1ccc(CNc2ncnc3c2cnn3Cc2ccccc2)cc1,8.5
COC(=O)c1ccc(-c2ccc(/C=N/NC(=O)Cc3nnc(N)s3)o2)cc1,19.1
Cc1ccc(NC(=S)NNC(=O)c2ccc(N3CCOCC3)c([N+](=O)[O-])c2)cc1C,10.4
CC12CCC(C(=O)N3CCOCC3)([C@H](Br)C1=O)C2(C)C (some centres undefined),9.0
Nc1nc2ccc(O)cc2s1,-5.4
O=C(NNC(=O)c1cccs1)c1ccc(Cl)c([N+](=O)[O-])c1,13.8
CCSc1nc2c(c(=O)[nH]1)C(c1ccc(C)cc1)C1=C(CCCC1=O)N2 (centres undefined),17.0
CCCCS(=O)(=O)Nc1ccc2cn[nH]c2c1,5.6
O=CN1CCN(C(=O)c2ccc([N+](=O)[O-])cc2)CC1,12.5
Cc1ccc(C)c2nc3sc(C(=O)O)cc3cc12,21.3
COc1ccccc1CNCc1ccc(OC)c(OC)c1OC,4.6
COc1cccc(CNC(=O)CCC2CCCN(C(=O)c3cccc4c(C)c(C)[nH]c34)C2)c1 (centres undefined),11.1
O=C(CSc1cccc[n+]1[O-])Nc1ccc(C(F)(F)F)cc1[N+](=O)[O-],8.4
Oc1ccc(/C=N/N2CCN(C3c4ccccc4-c4ccccc43)CC2)c(O)c1,12.7
CN1CCSc2ccc(C(=O)Nc3cc(F)ccc3F)cc21,25.5
CC(=O)c1sc2nsc(SCCN3CCCCC3)c2c1N,18.9

# An excerpt; count on the stated rates, not on these rows.
